# Assay outcomes (PubChem BioAssay)
# A1 apoptosis 2: A1 inhibitors via caspase activation, primary screen, cell-based, luminescence, HTS, two replicates | MEF A1-2A-BIM cells, caspase-Glo luminescence, 3 h; percent of clofoctol response, DMSO zero | caspase activation, % (no concentration beside the values) | 24,000 tested, under 10 active | AID 2465, 2010; in the data active = caspase activation above about 5.9%; inconclusive = no clear call, values can overlap the other calls; inactive = below about 2.2%;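 also: wells of about 30 µL received 50 nL stock; the first replicate is given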
#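 Evaluation: Caspase-3/7 activity from luminescence increase | Assay system: A1-2A-BIM mouse embryonic fibroblasts | Quantity: 2500 MEF cells/well | Medium: RPMI-1640 plus 10% FBS | Detection: Caspase-Glo 3/7 luminescence, 1 h at room temperature | Dosing: 50 nL compound per well, pinned | Timing: Cells settled overnight, compound exposure 3 h at 37 °C, 5% CO2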
# An asterisk follows results filed as active; ? = inconclusive. An excerpt; rates above refer to the full screens.
SMILES,A1 apoptosis 2
CO/N=[N+](\[O-])N1CCCC(C(N)=O)C1 (stereo unspecified),0.1
Cc1noc(C)c1NC(=O)N(C)C[C@@H]1Oc2ccc(NC(=O)Nc3ccc(F)cc3)cc2CC(=O)N([C@H](C)CO)C[C@@H]1C,-0.7
COc1cccc(CN(C)C[C@@H]2OCc3cn(nn3)CCCC(=O)N([C@@H](C)CO)C[C@H]2C)c1,0.0
Cc1cc(C(=O)Nc2cccc3c2O[C@@H](CN(C)C(=O)Nc2c(C)noc2C)[C@H](C)CN([C@@H](C)CO)C3=O)n(C)n1,0.5
CNC[C@H]1OCCCC[C@H](C)Oc2ccc(NS(=O)(=O)c3c(C)noc3C)cc2C(=O)N([C@H](C)CO)C[C@@H]1C,0.0
C[C@@H]1CN([C@@H](C)CO)C(=O)c2cc(NC(=O)CCC(F)(F)F)ccc2O[C@@H]1CN(C)Cc1ccc(Cl)c(Cl)c1,-0.2
C[C@@H]1CN([C@H](C)CO)C(=O)c2cccc(NC(=O)C3CC3)c2O[C@@H]1CN(C)C(=O)Nc1cccc2ccccc12,0.0
CC(C)(C)OC(=O)Nc1cccc(/C=N/NC(=O)c2ccccc2O)c1,-1.1
Cc1ccc(S(=O)(=O)Nc2ccc3c(c2)CC(=O)N([C@@H](C)CO)C[C@H](C)[C@@H](CN(C)S(=O)(=O)c2cn(C)cn2)O3)cc1,0.6
COc1ccc(NC(=O)Nc2ccc3c(c2)C(=O)N([C@H](C)CO)C[C@H](C)[C@@H](CN(C)S(=O)(=O)c2ccccc2)OCCCC[C@@H](C)O3)cc1,-0.4
COc1ccc(NC(=O)Nc2ccc3c(c2)C(=O)N([C@@H](C)CO)C[C@@H](C)[C@@H](CN(C)S(=O)(=O)c2ccc(OC)cc2)O3)cc1,0.0
C[C@@H]1CN([C@@H](C)CO)C(=O)c2cccc(NC(=O)c3nc4ccccc4s3)c2O[C@@H]1CN(C)S(=O)(=O)c1ccc(F)cc1,-1.0

# Another view of some results above.
COc1cccc(CN(C)C[C@@H]2OCc3cn(nn3)CCCC(=O)N([C@@H](C)CO)C[C@H]2C)c1
  A1 apoptosis 2 = 0.0

Cc1noc(C)c1NC(=O)N(C)C[C@@H]1Oc2ccc(NC(=O)Nc3ccc(F)cc3)cc2CC(=O)N([C@H](C)CO)C[C@@H]1C
  A1 apoptosis 2 = -0.7

CNC[C@H]1OCCCC[C@H](C)Oc2ccc(NS(=O)(=O)c3c(C)noc3C)cc2C(=O)N([C@H](C)CO)C[C@@H]1C
  A1 apoptosis 2 = 0.0

C[C@@H]1CN([C@@H](C)CO)C(=O)c2cccc(NC(=O)c3nc4ccccc4s3)c2O[C@@H]1CN(C)S(=O)(=O)c1ccc(F)cc1
  A1 apoptosis 2 = -1.0

# Following part
SMILES,A1 apoptosis 2
C[C@@H]1CCCCO[C@@H](CN(C)C(=O)Nc2cccc3ccccc23)[C@H](C)CN([C@@H](C)CO)C(=O)c2cc(N(C)C)ccc2O1,1.8
C[C@H]1CN([C@@H](C)CO)C(=O)c2cc(NC(=O)Cn3cnnn3)ccc2O[C@H]1CN(C)C(=O)Nc1ccc(C(F)(F)F)cc1,-0.5
COc1ccc(NC(=O)Nc2ccc3c(c2)C(=O)N([C@@H](C)CO)C[C@H](C)[C@@H](CN(C)C)OCCCC[C@H](C)O3)cc1,-0.3
C[C@@H]1CN([C@@H](C)CO)C(=O)Cc2cc(NC(=O)c3ccncc3)ccc2O[C@@H]1CN(C)C(=O)Nc1ccc2c(c1)OCO2,1.2
C[C@@H]1CN([C@@H](C)CO)C(=O)c2cc(NC(=O)Nc3ccc(C(F)(F)F)cc3)ccc2O[C@H]1CN(C)S(=O)(=O)c1cccs1,-0.1
C[C@@H]1CCCCO[C@H](CN(C)C(=O)Nc2ccc(F)cc2)[C@@H](C)CN([C@@H](C)CO)C(=O)c2cc(N(C)C)ccc2O1,0.7
C[C@@H]1CCCCO[C@@H](CN(C)C(=O)Nc2cccc3ccccc23)[C@@H](C)CN([C@H](C)CO)C(=O)c2cc(NC(=O)Cc3ccccc3)ccc2O1,0.0
Cc1ccc(S(=O)(=O)N(C)C[C@@H]2OCCCC[C@H](C)Oc3ccc(NS(=O)(=O)c4cccs4)cc3C(=O)N([C@@H](C)CO)C[C@H]2C)cc1,-0.1
Cc1noc(C)c1S(=O)(=O)N(C)C[C@@H]1Oc2ccc(NC(=O)NC(C)C)cc2CC(=O)N([C@H](C)CO)C[C@H]1C,0.4
COc1ccc(NC(=O)Nc2ccc3c(c2)CC(=O)N([C@H](C)CO)C[C@@H](C)[C@H](CN(C)C(=O)NC2CCCCC2)O3)cc1,-0.4
CC(C)[Si](OCCCNS(=O)(=O)c1ccc(Br)cc1)(C(C)C)C(C)C,?
Cc1ccc(CN(C)C[C@H]2OCc3cn(nn3)CCCC(=O)N([C@H](C)CO)C[C@H]2C)cc1,0.3
C[C@@H]1CN([C@H](C)CO)C(=O)Cc2cc(NC(=O)CCN3CCOCC3)ccc2O[C@@H]1CN(C)Cc1ccc(C(=O)O)cc1,0.7
C[C@@H]1CCCCO[C@H](CN(C)S(=O)(=O)c2ccc(Cl)cc2)[C@H](C)CN([C@@H](C)CO)C(=O)c2cc(NC(=O)c3ccccc3)ccc2O1,-0.5
C[C@@H]1CN([C@@H](C)CO)C(=O)c2cc(NC(=O)C3CC3)ccc2O[C@H]1CN(C)CC1CCCCC1,0.3
C[C@@H]1CCCCO[C@@H](CN(C)S(=O)(=O)c2ccc(F)cc2)[C@@H](C)CN([C@H](C)CO)C(=O)c2cc(NC(=O)Nc3ccc(F)cc3)ccc2O1,-0.3
COc1ccc(NC(=O)N(C)C[C@@H]2OCCCC[C@@H](C)Oc3ccc(NS(=O)(=O)c4ccc(Cl)cc4)cc3C(=O)N([C@H](C)CO)C[C@@H]2C)cc1,-0.4
C[C@H](CO)N1C[C@H](C)[C@H](CN(C)Cc2ccncc2)OCc2cn(nn2)CCCC1=O,0.4
CNC[C@@H]1Oc2c(NC(=O)c3nc4ccccc4s3)cccc2C(=O)N([C@H](C)CO)C[C@@H]1C,-0.5
COc1ccc(CN(C)C[C@H]2Oc3ccc(NC(=O)c4ccncc4)cc3CC(=O)N([C@@H](C)CO)C[C@@H]2C)cc1,0.3
C[C@H]1CN([C@@H](C)CO)C(=O)Cc2cc(N(C)C)ccc2O[C@H]1CN(C)S(=O)(=O)c1ccccc1,0.7
COc1ccc(S(=O)(=O)N(C)C[C@H]2Oc3ccc(NS(C)(=O)=O)cc3C(=O)N([C@H](C)CO)C[C@@H]2C)cc1,-1.7
C[C@@H]1CN([C@@H](C)CO)C(=O)c2cc(NC(=O)Cc3ccccc3)ccc2O[C@@H](C)CCCCO[C@@H]1CN(C)S(=O)(=O)c1cn(C)cn1,-0.5
CC(C)NC(=O)Nc1ccc2c(c1)CC(=O)N([C@H](C)CO)C[C@@H](C)[C@H](CN(C)S(=O)(=O)c1ccc(Cl)cc1)O2,1.4

# The list goes on; the last 2 above are carried over.
SMILES,A1 apoptosis 2
C[C@@H]1CN([C@@H](C)CO)C(=O)c2cc(NC(=O)Cc3ccccc3)ccc2O[C@@H](C)CCCCO[C@@H]1CN(C)S(=O)(=O)c1cn(C)cn1,-0.5
CC(C)NC(=O)Nc1ccc2c(c1)CC(=O)N([C@H](C)CO)C[C@@H](C)[C@H](CN(C)S(=O)(=O)c1ccc(Cl)cc1)O2,1.4
CC(C)NC(=O)Nc1cccc2c1O[C@H](CN(C)Cc1ccc(C(=O)O)cc1)[C@H](C)CN([C@H](C)CO)C2=O,-0.9
C[C@H]1CCCCO[C@@H](CN(C)Cc2ccc3c(c2)OCO3)[C@@H](C)CN([C@@H](C)CO)C(=O)c2cc(NC(=O)Nc3ccc4c(c3)OCO4)ccc2O1,-1.0
C[C@@H]1CN([C@@H](C)CO)C(=O)Cc2cc(NC(=O)Nc3ccccc3)ccc2O[C@@H]1CN(C)C(=O)Nc1ccc(F)cc1,0.1
C[C@@H]1CN([C@@H](C)CO)C(=O)Cc2cc(NC(=O)Nc3ccc4c(c3)OCO4)ccc2O[C@H]1CN(C)Cc1ccc(Oc2ccccc2)cc1,1.1
CC(C)NC(=O)Nc1ccc2c(c1)C(=O)N([C@@H](C)CO)C[C@@H](C)[C@H](CN(C)S(=O)(=O)c1cccs1)OCCCC[C@@H](C)O2,-0.4
C[C@@H]1CN([C@H](C)CO)C(=O)c2cccc(NC(=O)Nc3ccccc3)c2O[C@H]1CN(C)Cc1ccc(Oc2ccccc2)cc1,-0.5
CNC[C@@H]1Oc2c(NS(=O)(=O)c3ccc(Cl)cc3)cccc2C(=O)N([C@@H](C)CO)C[C@H]1C,-0.6
C[C@H](CO)N1C[C@H](C)[C@H](CN(C)C(=O)NC2CCCCC2)Oc2c(NC(=O)c3ccncc3)cccc2C1=O,-0.3
C[C@@H]1CCCCO[C@@H](CN(C)C(=O)Nc2ccc(F)cc2)[C@@H](C)CN([C@H](C)CO)C(=O)c2cc(NS(=O)(=O)c3ccccc3)ccc2O1,-0.1
C[C@H]1CN([C@@H](C)CO)C(=O)Cc2cc(NC(=O)CCN3CCOCC3)ccc2O[C@@H]1CN(C)S(=O)(=O)c1cn(C)cn1,0.3
COC(=O)CCCCCCC(=O)N/N=C/c1ccc(CO)o1,-0.2
Cc1ccc(S(=O)(=O)N(C)C[C@@H]2Oc3c(NS(C)(=O)=O)cccc3C(=O)N([C@@H](C)CO)C[C@@H]2C)cc1,-1.1
C[C@@H]1CN([C@H](C)CO)C(=O)c2cccc(NS(=O)(=O)c3ccc(Cl)cc3)c2O[C@@H]1CN(C)S(=O)(=O)c1ccccc1,0.9
Cc1ccc(S(=O)(=O)Nc2ccc3c(c2)CC(=O)N([C@@H](C)CO)C[C@@H](C)[C@H](CN(C)C(=O)Nc2cccc4ccccc24)O3)cc1,-0.8
C[C@@H]1CN([C@@H](C)CO)C(=O)CCCn2nncc2CO[C@@H]1CN(C)S(=O)(=O)c1ccc(Cl)cc1,0.4
C[C@@H]1CN([C@H](C)CO)C(=O)c2cc(N(C)C)ccc2O[C@H]1CN(C)Cc1ccc2c(c1)OCO2,0.6
CCCN(C)C[C@@H]1Oc2ncc(C#CCN(C)C)cc2C(=O)N([C@H](C)CO)C[C@@H]1C,2.0
COc1ccc(CN(C)C[C@@H]2Oc3c(NS(=O)(=O)c4ccc(Cl)cc4)cccc3C(=O)N([C@@H](C)CO)C[C@@H]2C)cc1,0.8
C[C@H](CO)N1C[C@H](C)[C@H](CN(C)Cc2ccc(C(=O)Nc3ccccc3N)cc2)Oc2c(NC(=O)Nc3ccc4c(c3)OCO4)cccc2C1=O,0.3
C[C@H]1CN([C@@H](C)CO)C(=O)Cc2cc(NC(=O)CCN3CCOCC3)ccc2O[C@H]1CN(C)C(=O)Nc1ccccc1,-1.1
Cc1ccc(S(=O)(=O)N(C)C[C@@H]2OCc3cnnn3CCCC(=O)N([C@H](C)CO)C[C@@H]2C)cc1,0.7
Cc1noc(C)c1NC(=O)N(C)C[C@H]1OCc2cnnn2CCCC(=O)N([C@H](C)CO)C[C@H]1C,-1.7
C[C@H](CO)N1C[C@H](C)[C@@H](CN(C)C(=O)Nc2ccc(C(F)(F)F)cc2)Oc2c(NC(=O)C3CCOCC3)cccc2C1=O,0.3
Cc1noc(C)c1S(=O)(=O)Nc1ccc2c(c1)CC(=O)N([C@H](C)CO)C[C@@H](C)[C@H](CN(C)Cc1ccc(C(F)(F)F)cc1)O2,-1.1
C[C@H](CO)N1C[C@H](C)[C@H](CN(C)S(=O)(=O)c2cn(C)cn2)Oc2c(NC(=O)Nc3cccc4ccccc34)cccc2C1=O,-0.3
C[C@@H]1CN([C@@H](C)CO)C(=O)Cc2cc(NC(=O)CCCCCC(=O)Nc3ccccc3N)ccc2O[C@@H]1CN(C)CC1CC1,0.1
C[C@@H]1CN([C@@H](C)CO)C(=O)c2cc(NC(=O)Cc3ccccc3)ccc2O[C@@H](C)CCCCO[C@@H]1CN(C)C(=O)c1ccncc1,-0.7
C[C@@H]1CN([C@@H](C)CO)C(=O)Cc2cc(NC(=O)C3CC3)ccc2O[C@H]1CN(C)C(=O)Nc1ccc(F)cc1,0.8
C[C@H](CO)N1C[C@H](C)[C@@H](CN(C)CC2CCCCC2)OCCCC[C@H](C)Oc2ccc(NS(=O)(=O)c3ccc(F)cc3)cc2C1=O,-1.7
O=C(C1=C[C@H](c2ccc3c(c2)OCO3)C[C@H](OCCCCO)O1)N1CCN(Cc2ccccc2)CC1,0.1
C[C@@H]1CCCCO[C@@H](CN(C)Cc2ccncc2)[C@@H](C)CN([C@H](C)CO)C(=O)c2cc(NS(=O)(=O)c3ccc(F)cc3)ccc2O1,-1.2
C[C@@H]1CN([C@@H](C)CO)C(=O)Cc2cc(NC(=O)Cc3cn(C)c4ccccc34)ccc2O[C@@H]1CN(C)S(=O)(=O)c1cn(C)cn1,-0.3
C[C@@H]1CN([C@H](C)CO)C(=O)c2cc(NC(=O)CCCCCC(=O)Nc3ccccc3N)ccc2O[C@@H]1CN(C)Cc1ccc(Oc2ccccc2)cc1,2.3
CNC[C@H]1Oc2c(NC(=O)NC3CCCCC3)cccc2C(=O)N([C@H](C)CO)C[C@H]1C,0.1
C[C@H]1CN([C@@H](C)CO)C(=O)c2cccc(NC(=O)Nc3ccc4c(c3)OCO4)c2O[C@@H]1CN(C)Cc1ccc(Cl)c(Cl)c1,-2.6
C[C@H](CO)N1C[C@H](C)[C@H](CN(C)C(=O)Nc2ccc3c(c2)OCO3)Oc2c(NC(=O)c3ccc(-c4nccs4)cc3)cccc2C1=O,1.0
